From PubChem
Beta apoptosis – inhibitors of cytokine-induced beta cell apoptosis, primary screen, luminescence; INS-1E cytokine-induced death, ATP luminescence, 48 h; percent of positive-control rescue, neutral wells zero; protection from apoptosis, % (no concentration beside the values); actives 0.8% (n = 300,000);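 active = all replicates at 75% or more, or half of them and the mean; inconclusive = half reach 75% but not the mean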;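 also: 0% = cytokine-treated negative control wells and 100% = positive control rescue; higher means more ATP so stronger rescue from cytokine killing; wells of about 40 µL received 100 nL stock; the first replicate is given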
T cruzi inh – inhibitors of intracellular T. cruzi growth, primary screen, luminescence, NIH3T3 host cells | T. cruzi beta-gal in NIH3T3, 90 h | inhibition, % (concentration not given with the values) | actives 1.4% (n = 300,000);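 active = mean inhibition across valid replicates above about 55%, limit read from the data; inconclusive = mean below that limit but half or more replicates reach it; inactive = mean below it, under half of replicates reach it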;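 also: signal also drops with host cell toxicity which is not excluded here; 0% = plate median of DMSO wells and 100% = zero luminescence signal; higher percent means less beta-gal luminescence so fewer parasites; stock transfer was 50 nL into about 50 µL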
UCH37 inh – inhibitors of human UCH37 deubiquitinase, primary screen, biochemical, Ub-AMC cleavage, fluorescence; Ubiquitin carboxyl-terminal hydrolase isozyme L5 (Homo sapiens), Q9Y5K5; purified proteasome/UCH37; inhibition, % (no concentration beside the values); actives 0.33% (n = 330,000); AID 588478, 2011;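 active = mean of two replicates above 20%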;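 also: 0% = compound-free wells with enzyme and 100% = wells lacking proteasome; stock transfer was 100 nL into about 20 µL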
Target sequence (Q9Y5K5 whole entry, looked up): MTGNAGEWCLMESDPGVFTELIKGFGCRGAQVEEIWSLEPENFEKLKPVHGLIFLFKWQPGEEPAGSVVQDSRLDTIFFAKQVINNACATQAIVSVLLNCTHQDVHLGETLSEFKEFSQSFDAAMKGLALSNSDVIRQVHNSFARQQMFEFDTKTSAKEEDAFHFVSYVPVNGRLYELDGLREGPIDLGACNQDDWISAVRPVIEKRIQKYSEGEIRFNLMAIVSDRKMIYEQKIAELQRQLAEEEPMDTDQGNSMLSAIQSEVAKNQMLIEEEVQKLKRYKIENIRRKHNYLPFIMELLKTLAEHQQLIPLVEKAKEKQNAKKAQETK
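Test system – human UCH37 enzyme supplied as purified proteasome complex · Incubation – 30 min preincubation with enzyme, 25 min cleavage at room temperature · Detection – AMC fluorescence from Ub-AMC cleavage, excitation 355 nm, emission 460 nm · Benchmarks – no-proteasome wells (full inhibition) and compound-free wells (no inhibition)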
LANA-H2A inh – blockers of LANA interaction with H2A/H2B – biochemical, FP readout, HTS, primary screen; Protein LANA1 (Human herpesvirus 8 type P (isolate GK18)), Q9QR71; cell-free LANA-H2A/H2B peptide, fluorescence polarization; inhibition, % (concentration not given with the values); actives 0.6% (n = 320,000); AID 2629, 2010; in the data active = inhibition mostly above about 10%, no sharp cut-off; inactive = mostly below about 6.7%;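 also: stock transfer was 7.5 nL into about 10 µL; 0% = median of vehicle wells and 100% = median of positive control wells; one replicate is shown; the record names a cut of 25% in any replicate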
B2AR ag – beta2AR agonists driving receptor internalization, primary screen, cell-based, FAP fluorogen, flow cytometry; Beta-2 adrenergic receptor (Homo sapiens), P07550; Am2.2-beta2AR cells; reference of the scale not given here; response, % (concentration not given with the values); actives 0.43% (n = 340,000);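 active = response above a set limit, near 3 SD of response in nonfluorescent compounds, cut at about 42% in these data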;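 also: stock transfer was 100 nL into about 11 µL; a reference agonist was the positive control; negative values mostly stem from fluorescent compounds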
Target sequence (P07550 whole entry, looked up): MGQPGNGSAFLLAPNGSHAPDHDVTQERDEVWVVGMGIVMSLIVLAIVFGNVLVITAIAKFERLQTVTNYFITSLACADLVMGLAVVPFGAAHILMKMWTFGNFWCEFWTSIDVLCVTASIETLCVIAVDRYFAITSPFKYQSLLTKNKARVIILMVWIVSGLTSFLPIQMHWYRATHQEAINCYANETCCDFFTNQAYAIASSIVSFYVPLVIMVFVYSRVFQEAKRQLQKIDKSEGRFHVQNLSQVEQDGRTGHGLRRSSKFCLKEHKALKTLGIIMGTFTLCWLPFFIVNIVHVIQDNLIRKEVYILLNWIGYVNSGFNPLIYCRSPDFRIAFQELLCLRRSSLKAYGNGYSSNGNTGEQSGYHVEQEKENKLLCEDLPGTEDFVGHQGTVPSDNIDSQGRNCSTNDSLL
RanGTP-Impb inh – inhibitors of RanGTP-importin-beta interaction, primary screen, biochemical, FRET, CFP-Ran, YFP-importin-beta, homogeneous. cell-free CFP-Ran/YFP-importin-beta FRET ratio. inhibition, % (concentration not given with the values). AID 2216, 2009. Ran GTPase (GTP-bound) - importin-beta complex. actives 1.1% (n = 300,000);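 active = most replicates above 15%; inconclusive = exactly half above 15%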;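 also: 0% = DMSO wells and 100% = Ran loaded with GDP instead of GTP; wells of about 40 µL received 100 nL stock; the first replicate is given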
Calb FLC – C. albicans growth inhibition with fluconazole, primary screen, CaCi-2 strain, Alamar Blue fluorescence. C. albicans CaCi-2 (fluconazole-resistant clinical isolate) + fluconazole, 48 h. actives 0.57% (n = 300,000). growth inhibition, % (concentration not given with the values). AID 1979, 2009;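 active = most replicates above 75%; inconclusive = exactly half above 75%; inactive = most below 75%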;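 also: all wells also contain fluconazole at 8 µg/ml as a sub-toxic cotreatment; 0% = median of DMSO wells and 100% = median of geldanamycin control wells; wells of about 8 µL received 7.5 nL stock; the first replicate is given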
Bfl-1 A1 inh – caspase 3/7 activation in MEF A1-2A-BIM cells, primary screen, A1 inhibitor project, cell-based, luminescence, HTS | Caspase-Glo 3/7 luminescence, 3 h; percent of clofoctol response, vehicle zero | caspase activation, % (no concentration beside the values) | actives 0.066% (n = 330,000);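 active = over half of replicate activation scores above 10%, or exactly half above 10 with the replicate mean above 10; inconclusive = replicate mean below 10 yet half the replicates above 10; inactive = over half of replicates below 10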;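 also: wells of about 30 µL received 50 nL stock; many hits fall short of the cut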
* marks the source's active call; other numbers are inactive results; ? = inconclusive; . = not tested or not shown; + = active, no number. An unsorted share of the library; any-hit rate near 4.3%.

Below each compound – Beta apoptosis, T cruzi inh, UCH37 inh, LANA-H2A inh, B2AR ag, RanGTP-Impb inh, Calb FLC, Bfl-1 A1 inh
- COc1ccc(C(=O)OCC(=O)NCc2ccc3c(c2)OCO3)cc1[N+](=O)[O-]
    -4.2, -13.9, 2.3, -4.1, 0.8, 5.9, -7.3, -1.0
- N#CCCN(CCC#N)c1nnc(-c2ccccc2)s1
    3.9, -7.3, 2.4, -2.7, -0.5, -1.1, -9.2, 0.1
- CCOc1ccc2c(c1)-c1c(ssc1=S)C(C)(C)N2C
    -1.1, 8.2, 2.3, 3.1, 2.6, 0.7, 4.2, -0.5
- O=C(C[C@H]1C/C=C\CC[C@H](Cc2ccc(F)cc2)C(=O)O[C@H](c2ccccc2)CNC1=O)N[C@H](CO)Cc1ccccc1
    1.4, ., 2.6, +, 23.9, ., ., 0.0
- COc1ccc(NC(=O)/C(C#N)=C\c2ccc(-c3cc(C(=O)O)ccc3C)o2)cc1
    ., 1.3, 8.9, 5.7, 5.5, -1.6, -10.8, 0.8
- C/C=C(\C)CN1CCc2cc(OC)c(OC)cc2C1
    1.6, 8.5, -9.9, -1.2, -7.7, 12.5, -2.5, 0.7
- O=C(Nc1ccc(-n2cnnn2)cc1)C1CCC1
    0.6, -3.1, 1.7, 1.3, -12.2, -1.1, 3.5, 0.8
- CCCCOC(=O)C1=C(C)Nc2ncnn2C1c1cccc(OC)c1 (stereo not given)
    -10.1, -10.1, 2.1, -2.8, -14.7, -0.8, -8.3, -0.6
- O=C(NC1CC1)c1ccc(CS(=O)(=O)c2c(Cl)cccc2Cl)o1
    -3.5, 10.2, 0.3, 3.6, -1.9, 3.1, 3.4, 0.1
- COC(=O)C1=C(C)N(C(C)c2ccccc2)C(=O)/C1=C\c1ccco1 (stereo not given)
    1.0, 12.5, 0.2, 3.2, 3.3, 2.5, 5.7, -0.1
- Cc1ccc2c(cnn2C(=O)CCC(=O)NCc2ccccc2Cl)c1
    0.2, -14.2, 4.5, 0.8, 0.1, -2.8, -0.3, .
- O=C1CC(c2ccco2)CC(O)=C1C=Nc1cc(Cl)ccc1O (stereo not given)
    -15.4, -2.9, -2.7, -4.7, -0.9, -1.1, -3.6, -0.8
- Cc1ccc(NC(=O)COC(=O)[C@H](C)NC(=O)c2ccccc2)cc1S(=O)(=O)N1CCOCC1
    -2.1, -17.9, 1.9, -2.5, 10.1, -0.5, -8.0, 0.8
- COc1ccc(CNC(=O)C(c2ccco2)N(Cc2ccccc2)C(=O)Cc2cccs2)cc1 (stereo not given)
    -0.3, 7.6, 4.4, -0.7, 3.0, -1.5, 8.9, -0.4
- Cc1ccc(C)c(SCc2noc(C(=O)NCC3CCCO3)c2C(=O)O)c1 (stereo not given)
    2.0, -11.6, ., -5.0, -6.6, 0.7, 6.6, -1.5
- N#Cc1c(SCc2ccccc2)sc(C(=O)c2ccccc2)c1N
    ., -16.4, -1.5, -1.5, -3.7, 6.2, 1.1, 0.7
- Cc1ccc(NC(=O)C2CCCN(C3=NS(=O)(=O)c4ccccc43)C2)c(O)c1 (stereo not given)
    0.8, ., -0.4, -3.0, -69.7, ., ., 1.2
- O=C(NCc1ccc(C(F)(F)F)cc1)C1CC(c2cccc(F)c2)=NO1 (stereo not given)
    -0.9, -9.6, 2.9, 0.1, 10.9, 0.1, 21.4, -1.3
- COc1ccc(CNC(=O)CCS(=O)(=O)Cc2cccc(Cl)c2)c(OC)c1
    5.3, 10.9, 4.3, 2.3, -3.4, -1.0, -2.5, -0.4
- COc1ccc(NC(=O)COc2coc(CN3CCc4ccccc43)cc2=O)cc1
    5.9, -2.8, 2.1, -0.8, -0.5, ?, -1.8, 1.4
- C=CCN(C(=O)c1csnn1)C(C(=O)NC1CCCC1)c1ccccc1 (stereo not given)
    -0.2, 3.2, 0.6, -5.1, -2.6, -3.1, -1.7, 0.1
- O=C(CSc1nnc(-c2c[nH]c3ccccc23)o1)N(Cc1ccccc1)c1ccc(F)cc1
    15.7, 54.6*, -0.9, 4.8, 3.4, -1.0, 0.1, 1.0
- COC(=O)C1=C(C)N(C)C(C)=C(C(=O)OC)C1c1ccc(C(=O)OC)cc1
    -1.5, 13.5, -18.1, 3.7, -2.6, -0.3, -1.7, -0.3
- CCN(CC)S(=O)(=O)c1cccc(NC(=O)C(=O)c2c(-c3ccccc3)cc3ccccn23)c1
    10.2, 48.2, 6.8, -0.1, -0.3, 1.0, 7.0, -0.1
- O=C(NCCc1ccccc1)C(=O)NCC1OCCN1S(=O)(=O)c1ccc(F)cc1 (stereo not given)
    2.8, 0.6, 2.0, 2.0, -9.3, 2.9, 3.3, -0.6
- COc1ccc2nc(NC(=O)CN(C)S(=O)(=O)c3cccs3)sc2c1
    7.0, 11.2, 2.3, -3.8, 3.8, -2.5, 3.2, -0.5
- c1csc(C(c2nnnn2C2CCCCC2)N2CCN(c3nc4ccccc4s3)CC2)c1 (stereo not given)
    ., -20.3, 1.4, ., -6.1, 7.1, 3.6, .
- CCOc1ccc(NC(=O)Nc2cc(C(C)C)c(O)cc2C)cc1
    2.4, 27.3, 0.1, 2.2, -1.7, -3.4, -1.1, 0.5
- CCOCCCNS(=O)(=O)c1ccc(NC(=O)N2c3ccccc3Sc3ccccc32)cc1
    ., 31.7, 1.7, -0.3, 12.3, 2.3, -8.0, 0.1
- N#Cc1ccc(CN(c2ccncc2)S(=O)(=O)c2ccccc2)cc1
    -4.6, -2.1, 4.6, 0.8, 2.4, -1.0, 3.1, 0.5
- Cc1cccc(C)c1NC(=S)N1CC(C)OC(C)C1 (stereo not given)
    -0.3, -3.7, 1.4, 3.5, -4.8, -2.1, -2.2, 0.5
- Cc1ccc(CCN2CC(C(=O)NC(C)C)CC2=O)cc1 (stereo not given)
    ., -4.8, -1.0, -6.4, -3.0, -1.0, 4.7, 0.3
- NC(=O)[C@H](Cc1cc2ccccc2s1)NC(=O)[C@@H]1CC2(CC(c3cccc(NC(=O)[C@@H]4CCC(=O)N4)c3)=NO2)CN1C(=O)/C=C/c1c(F)cccc1Cl (stereo not given in full)
    3.7, 3.5, 0.9, -1.5, -2.0, 2.5, 3.3, 0.3
- O=C1NC(NS(=O)(=O)c2ccccc2)(C(F)(F)F)C(=O)N1Cc1cccnc1 (stereo not given)
    -5.2, -10.5, -2.3, -0.2, 5.2, ?, 4.8, 1.0
- Cc1ccc(S(=O)(=O)N2CCN(C(=O)COC(=O)CSc3cc(C)ccc3C)CC2)c(C)c1
    -15.3, ., 4.0, -0.9, 9.0, ., ., -0.7
- O=C(O)c1ccc2c(=O)n3c(nc2c1)/C(=C/c1ccccc1OC(F)F)CC3
    -6.3, 0.2, -45.8, -4.4, -3.0, 0.1, 3.1, 1.1
- Cc1ccc(C(=O)N2CCN(CCNC(=O)C(=O)Nc3ccc(Cl)cc3)CC2)cc1
    ., 8.6, 1.9, ., -7.2, -5.6, -1.8, .
- CC(=O)c1c(C)[nH]c(C(=O)NCc2ccc(F)cc2)c1C
    -0.2, -5.9, 2.1, -3.8, 9.6, -4.8, 5.9, 0.2
- CCCCOc1ccc(CC2CCC(=O)NC2=O)cc1 (stereo not given)
    2.4, 3.5, 3.1, 9.4, -1.5, -0.7, 3.7, 0.5
- CCCN=Cc1ccc(O)cc1
    0.1, -12.7, 6.0, 1.2, 1.1, -13.8, 11.0, 0.0
- Cc1cc(C(=O)NCCC2=CCCCC2)ccc1[N+](=O)[O-]
    ., 7.9, 4.1, 5.3, 4.3, -1.1, -10.3, 0.3
- COC(=O)Nc1ccc(S(=O)(=O)N2CCCC(C(=O)N3CCCCC3)C2)cc1 (stereo not given)
    -3.9, 0.5, 0.3, 2.4, -2.4, 0.7, -21.2, 0.2
- Cc1cc(F)ccc1N1CCC(N2CCN(C)C(CCO)C2)CC1 (stereo not given)
    1.1, 31.9, 1.0, -7.2, -7.9, 11.0, -6.3, -0.1
- COC(=O)c1cn(C(=O)c2ccc(C)c(C)c2)c2ccccc12
    0.3, -19.9, 2.3, -3.9, -2.5, 0.5, -3.6, 0.5
- CCOC(=O)c1ccc(NC(=O)CS(=O)(=O)c2cn(CC)c3ccccc23)cc1
    -2.5, ., 0.2, -1.0, -6.5, ., ., 0.2
- COC(=O)c1sc(NC(=O)c2cccc([N+](=O)[O-])c2)c(C(N)=O)c1C
    6.1, -10.0, 3.4, 1.9, -24.2, -1.3, -3.2, 0.1
- COc1cc(/C=C/C(=O)O)cc(S(=O)(=O)NCCCO)c1OC
    -1.6, -5.7, ., -11.6, 1.2, -1.1, 8.3, 3.0
- Cn1nc(-c2ccc(C(=O)Nc3cccc(Cl)c3)cc2)c2ccccc2c1=O
    -1.4, 7.6, 0.0, 2.5, 21.6, -2.3, -1.4, -0.3
- Cc1cc(-c2cc(C(=O)NCc3ccccc3)on2)nc(NC2CCCC2)n1
    7.4, -0.2, -0.8, 1.5, 5.3, 3.6, 2.0, 0.5
- CCOC(=O)c1ccc(NC(=O)c2nc[nH]c2C(=O)NC)cc1
    -5.6, -13.8, 0.9, 2.8, -3.1, -3.0, -1.9, -0.9
- O=[N+]([O-])c1ccc(C[n+]2cccc3ccc4cccnc4c32)cc1
    8.7, -4.3, 1.8, 0.0, -1.7, ?, -15.6, 0.1
- Cc1cc(C(C)(C)C)ccc1OCCN(C)C
    -2.4, -11.7, 1.3, -6.9, 2.1, 0.5, -5.5, -0.2
- CCCCNS(=O)(=O)c1ccc2nc(SCC(=O)c3ccc(C#N)cc3)[nH]c2c1
    -1.2, -7.2, -0.3, 1.0, -2.6, 7.4, 18.1, -1.5
- Cc1cc(C)c(NC(=O)Nc2ccc3c(c2)OCO3)c(C)c1
    5.0, 0.4, 1.5, 0.7, 4.8, 1.6, -1.1, 0.4
- Nc1nc2c(s1)CCCCCCCCCC2
    -8.5, 3.8, 2.2, -6.4, 0.4, 1.9, -8.3, -0.5
- Cc1cccc(CC(=O)OCn2nnc3ccccc3c2=O)c1
    -2.0, 10.3, 2.2, -3.2, 13.1, 0.0, -1.6, -0.2
- OCCN(CC#CC(O)(c1ccccc1)C1CCCCC1)CCO (stereo not given)
    ., -3.2, 8.1, 0.4, -7.7, ?, -3.3, 0.3
